Ecoli rRNA inh = inhibits bacterial ribosomal RNA function over humanized ribosomes | 1.6% of 350,000 active | GFP signal change (wild-type ribosome), % (no concentration beside the values) | E. coli WT GFP vs humanized-ribosome RFP mutants, fluorescence, 24 h; active compounds read low; DMSO median 0, no signal -100;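 active means significant combined selectivity score with lowered wild-type GFP, culture density cut under 30%, mutant RFP and density less affected; inactive means any of these conditions unmet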; further: one replicate is shown; some compounds called inactive have numbers as strong as hits
Vif TR-FRET = inhibitors of Vif binding to APOBEC3G peptide, primary screen, biochemical, TR-FRET, GST-Vif 1-94, biotin-A3G peptide, dose response retest (AID 1117319); TR-FRET GST-Vif / biotin-A3G peptide binding; higher % means a stronger effect; test concentration not given here; strong numbers were not always called active; 0.57% of 260,000 active; inhibition, %; hits with a dose series show IC50 in µM;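 active means above the screen mean plus three standard deviations and confirmed in dose response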;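 further: Vif residues 1-94 fused to GST binding biotinylated APOBEC3G peptide 110-148; 0% = full assay without inhibitor and 100% = GST in place of GST-Vif; retest series ran down from 100 µM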
Ecoli growth = E. coli growth inhibition. Escherichia coli growth, OD600, 23 h; active compounds read low. OD600 absorbance (concentration not given with the values). 0.21% of 330,000 active;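 active means OD600 absorbance below the run mean of sample wells minus 3.6 SD, in any replicate, cut at about 0.56 in these data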;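 further: stock transfer was 300 nL into about 60 µL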
AF4-AF9 inh = inhibitors of human MLL-AF4/AF9 interaction | 0.47% of 350,000 active | P42568 | AlphaScreen, biotin-AF4 peptide binding to FLAG-AF9 | inhibition, % at 10 µM;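 active means every replicate reaching a set inhibition limit, whatever the replicate mean, cut at about 25% in these data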;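 further: 0% = plate neutral control median and 100% = total signal loss; the record names both 10 and 1 µM as test concentration; the first replicate is given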
Target sequence (P42568 whole entry, looked up): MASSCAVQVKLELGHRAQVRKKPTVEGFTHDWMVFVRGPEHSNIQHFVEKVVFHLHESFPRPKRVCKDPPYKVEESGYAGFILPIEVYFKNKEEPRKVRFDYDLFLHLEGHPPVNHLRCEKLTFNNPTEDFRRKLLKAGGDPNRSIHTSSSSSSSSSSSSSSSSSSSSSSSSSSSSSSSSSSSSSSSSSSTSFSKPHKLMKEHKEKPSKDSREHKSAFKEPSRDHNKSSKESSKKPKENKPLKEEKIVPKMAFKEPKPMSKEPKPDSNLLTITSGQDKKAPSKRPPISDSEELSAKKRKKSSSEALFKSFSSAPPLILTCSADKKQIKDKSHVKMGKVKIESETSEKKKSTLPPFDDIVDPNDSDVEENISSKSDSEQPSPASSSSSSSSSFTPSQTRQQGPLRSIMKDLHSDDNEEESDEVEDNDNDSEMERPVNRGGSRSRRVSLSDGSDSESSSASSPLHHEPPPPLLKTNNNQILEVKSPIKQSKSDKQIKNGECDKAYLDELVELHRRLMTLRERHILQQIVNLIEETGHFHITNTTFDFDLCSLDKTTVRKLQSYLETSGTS
FGF22 binding = FGF22 (human) thermal shift binding; recombinant FGF22 thermal shift, SYPRO orange fluorescence; percent of sucrose octasulfate shift, DMSO zero; calls only at 9.99 µM; 1.5% of 340,000 active;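 active means melting point raised past a set limit in the mean and every replicate; three in four hits are not shown here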
Target sequence (Q9HCT0 whole entry, looked up): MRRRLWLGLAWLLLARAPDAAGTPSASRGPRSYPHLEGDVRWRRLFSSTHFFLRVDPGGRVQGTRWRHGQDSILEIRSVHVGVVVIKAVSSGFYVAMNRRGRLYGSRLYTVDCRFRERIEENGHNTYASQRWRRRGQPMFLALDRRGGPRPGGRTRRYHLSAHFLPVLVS
HNF4A DNA FP = change in binding of human HNF4 alpha to DNA | P41235 | HNF4a-FITC DNA binding, fluorescence polarization, 1 h | activity change, % at 10 µM | 0.3% of 360,000 active; in the data active means activity change above about 30%, passing the limit was not always enough;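 further: controls were the assay level and a saturating level of protein; the project sought stronger binding though the title names inhibitors; some compounds called inactive have numbers as strong as hits; positive values seem to mean higher polarization but the record does not say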
ALR inh = blocks human ALR sulfhydryl oxidase activity; P55789; purified ALR, DTT oxidation, H2O2 HRP-luminol luminescence; inhibition, % (test concentration not listed); 3.8% of 290,000 active;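 active means mean and each replicate at 75% or more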;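 further: stock transfer was 7.5 nL into about 7.5 µL; 0% = neutral wells and 100% = wells with inactivated enzyme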
Target sequence (P55789 whole entry, looked up): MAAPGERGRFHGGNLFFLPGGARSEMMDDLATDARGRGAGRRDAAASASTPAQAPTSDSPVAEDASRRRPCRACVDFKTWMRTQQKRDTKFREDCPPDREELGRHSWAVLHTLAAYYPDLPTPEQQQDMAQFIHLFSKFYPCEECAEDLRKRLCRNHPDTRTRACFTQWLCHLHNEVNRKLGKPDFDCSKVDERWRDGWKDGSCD
Ecoli rRNA inh OD600 = further read-out of Ecoli rRNA inh, marked with its call; OD600 change, %; measured here: OD600 growth;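 optical density of the mix in the first replicate; 0 = DMSO median and -100 = no signal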
Ecoli rRNA inh RFP = further read-out of Ecoli rRNA inh, marked with its call; RFP signal change, %; measured here: RFP humanized mutant strains;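 first replicate; 0 = DMSO median and -100 = no signal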
* = called active by the depositor; i = inactive; . = no result given; & = joins results of further samples.

SMILES	Ecoli rRNA inh	Ecoli rRNA inh OD600	Ecoli rRNA inh RFP	Vif TR-FRET	Ecoli growth	AF4-AF9 inh	FGF22 binding	HNF4A DNA FP	ALR inh
CCOc1ccc2nc(NC(=O)c3ccccn3)sc2c1	2	-4	3.6	8%	0.67	-15	.	4.2	-5
Cc1cc(C)c(C)c(S(=O)(=O)NCc2ccc(C(=O)N3CCCCC3)cc2)c1C	.	.	.	-4%	0.75	.	.	0.2	-6
O=C(C[C@@H]1CC[C@H]2[C@@H](COC[C@H](O)CN2Cc2cccc(Cl)c2)O1)Nc1nccs1	-1	4	6.3	.	.	1.7	i	.	.
COC(=O)C1=C(N)OC2=C(C(=O)CCC2)C1c1ccc2c(c1)OCO2 (centres undefined)	3	4	0.6	.	0.72	3.0	i	2.7	10
C[C@H](CO)N1C[C@H](C)[C@@H](CN(C)CC2CCCCC2)Oc2ccc(NC(=O)c3ccncc3)cc2C1=O	-3	-10	-1.4	.	.	-5.3	i	.	.
CCCC(=O)Nc1ccc2c(c1)C(=O)N(C)[C@@H]1CC[C@@H](CC(=O)NC3CCCC3)O[C@H]1CO2	5	5	-0.6	.	.	-2.3	i	.	.
C[C@H](CO)N1C[C@H](C)[C@H](CN(C)CC2CCCCC2)Oc2c(NC(=O)Nc3cccc4ccccc34)cccc2C1=O	-1	-9	1.0	.	.	7.6	i	.	.
COc1ccc(Cl)cc1NC(=S)Nc1ccccc1C	-6	0	0.1	-4%	0.69	2.4	i	-7.5	-2
Cc1cccc(C(=O)N2CCN(Cc3nc4sc5c(c4c(=O)[nH]3)CCCC5)CC2)c1	.	.	.	-8%	0.65	3.2	i	0.9	-6
CSc1cccc(NC(=O)CN(C)S(=O)(=O)c2ccccc2)c1	-13	-7	1.8	-3%	0.7	-12	i	0.1	-6
CCCCCn1c(=O)c(F)cn(Cc2ccc(OC)c([N+](=O)[O-])c2)c1=O	.	.	.	-10%	0.69	.	.	-0.1	-1
O=C1C2C3C=CC(C4CC34)C2C(=O)N1/N=C/c1ccc(-c2ccc([N+](=O)[O-])cc2)o1 (centres undefined)	.	.	.	-9%	.	0.7&0.5	i	7.7	-3
COc1cccc(OCc2cc(C(=O)N(C)Cc3nccn3C)no2)c1	3	1	-2.3	.	0.7	-0.4	i	2.9	-7
Cc1cccc(C)c1OC(=O)CSc1nnc(-c2ccccc2O)o1	.	.	.	-5%	0.73	.	.	0.8	0
CCc1noc(C)c1C(=O)N1CC(C)OC(C)C1 (centres undefined)	.	.	.	-6%	0.73	.	.	-2.7	-8
O=C(CCC(=O)N1CCOc2ccccc21)NCc1ccccn1	0	12	-0.3	.	0.73	-3.7	i	7.0	-9
CC(C)N(C(=O)[C@H]1C[C@H](CC(=O)NC(C)(C)C)C(=O)N2CCc3c([nH]c4cc(CCC(=O)N(C)C)ccc34)[C@]12C)C(C)C	13	7	3.1	-7%	0.66	1.0	i	9.3	.
Cc1ccc(CNc2ncnc3c2cnn3C2CCCCO2)cc1 (centres undefined)	-6	-6	3.7	-3%	0.66	-6.0	i	-3.6	.
C[C@@]12C(=O)N(CC3CCCO3)CC(=O)N1[C@H]1c3cc(Cl)ccc3OC[C@@H]1[C@@H]2c1ccccc1 (some centres undefined)	-7	-24	5.6	.	.	.	i	0.8	-5
C[C@H](CO)N1C[C@H](C)[C@H](CN(C)C(=O)Nc2cc(F)ccc2F)Oc2cc(-c3ccc(C#N)cc3)ccc2S1(=O)=O	0	-2	1.6	.	.	-19	i	.	.
CCC(=O)N(C)C[C@H]1Oc2cc(-c3cccc(F)c3)ccc2S(=O)(=O)N([C@@H](C)CO)C[C@H]1C	-5	-11	1.8	.	.	-0.5	i	.	.
COc1ccc(NC(=O)C2CCCCN2S(=O)(=O)c2ccccc2)cc1S(=O)(=O)N1CCOCC1 (centres undefined)	-4	-6	-1.4	.	0.68	4.7	i	-1.6	.
O=C(CCN1C(=O)c2ccccc2C1=O)Nc1nc2ccccc2s1	-1	1	-1.4	.	0.68	-1.0	i	-2.6	-9
CCOC(=O)CNC(=O)CSc1nnc(SCC(=O)NCC(=O)OCC)s1	.	.	.	3%	0.67	5.7	i	-3.4	.
C[C@H]1CN([C@@H](C)CO)C(=O)c2cccc(NC(=O)Nc3cccc4ccccc34)c2O[C@H]1CN(C)C(=O)Nc1cccc2ccccc12	-1	6	0.2	.	.	0.5	i	.	.
O=C(NCCCCNCCCNC(=O)c1ccccc1)c1ccccc1	4	8	-4.4	.	0.65	-0.4	i	6.9	.
O=C(Nc1ccccn1)C12CC3CC(C1)CC(C(=O)Nc1ccccn1)(C3)C2	.	.	.	5%	0.67	.	.	3.5	-9
COc1ccc(C(=O)NC2CCN(C(=S)Nc3ccccc3C)CC2)cc1	16	8	-0.7	-2%	0.67	0.8	.	-1.3	-1
CC(C)(C)OC(=O)N1CCC(CC2CC(c3ccncc3)=NO2)(C(=O)O)CC1 (centres undefined)	5	13	0.9	.	0.61	2.1	i	1.1	.
C=CCN(c1ccccc1)S(=O)(=O)c1cccc(C(=O)NC2CCN(Cc3ccccc3)CC2)c1	1	-18	3.0	0%	0.67	5.5	.	0.6	-6
COc1ccccc1-c1cn(CC[C@@H]2CC[C@@H](NC(=O)C3CCCCC3)[C@H](CO)O2)nn1	-6	-3	1.2	.	.	-3.0	i	.	.
CC1CCc2sc(C(=O)NCc3ccc(F)cc3)cc2C1 (centres undefined)	.	.	.	-4%	0.69	.	.	0.1	-5
Cc1ccc(Nc2c([N+](=O)[O-])c(=O)n(C)c3ccccc23)cc1	-17	-20	2.3	.	0.65	2.0	i	0.9	-1
O=C(CCNC(=O)c1ccco1)Nc1ccc(OC(F)F)c(Cl)c1	-1	-18	4.8	.	0.6	-2.3	.	-2.9	-7
C[C@H](CO)N1C[C@H](C)[C@@H](CN(C)Cc2ccncc2)Oc2c(NS(=O)(=O)c3ccccc3)cccc2C1=O	3&5	4&13	-0.3&-0.8	.	.	-7.8&-3.8	i	-0.7	6
COC(=O)C[C@@H]1C[C@@H]2c3cc(NC(=O)Nc4ccccc4)ccc3O[C@@H]2[C@@H](CO)O1	7	9	-2.2	.	.	0.4	i	.	.
CCOC(=O)c1ccc(NC(=O)c2nc[nH]c2C(=O)NC)cc1	4	10	0.0	15%	0.7	-1.4	i	-3.5	-1
COc1cc(-n2c(=O)c3ccccc3n(CC(=O)OCc3ccccc3)c2=O)cc(OC)c1OC	13	1	-2.5	-6%	0.69	0.9	i	-0.2	2
CC(C)(C)CN1CCN(Cc2c[nH]c3ccccc23)CC1CCO (centres undefined)	16	13	0.9	.	0.65	-0.4	i	3.5	-7
Cc1cccnc1NC(=O)c1c(O)c2cccc3c2n(c1=O)CCC3	.	.	.	19%	0.74	.	.	-2.9	-23
CCCC(=O)Nc1ccc2c(c1)C(=O)N(C)[C@@H]1CC[C@@H](CC(=O)NCc3ccccc3)O[C@H]1CO2	1	-2	1.8	.	.	-0.8	i	.	.
O=C(CNC(=O)c1cccc(F)c1)OCC(=O)N1CCN(C(=O)c2ccco2)CC1	11	9	3.7	.	0.66	-3.1	.	4.3	.
COC(=O)c1ccc(COc2ccc(/C=N/NC(N)=S)cc2)o1	-29*	-5.7*	5.7*	-5%	.	1.9	i	-0.6	.
CCOC(=O)C1CCCN(S(=O)(=O)c2c(C(=O)N3CCCCC3)c(C)n(C)c2C)C1 (centres undefined)	4	1	-0.9	.	0.69	0.5	i	6.9	1
C=Cn1cc[n+](CC(=O)c2ccc(Br)cc2)c1	14	9	2.1	-2%	0.69	4.6	i	3.5	16
CC(=O)c1ccc(OCCCC(=O)N2CCN(S(=O)(=O)c3ccc(C)cc3C)CC2)cc1	-16	-19	-1.9	4%	0.61	19	i	1.8	-15
COc1ccc(OC)c(NC(=O)Nc2ccc(O)c3ccccc23)c1	.	.	.	.	0.63	2.1	i	0.8	34
N=c1c2c(ncn1CCCO)Oc1cc(O)ccc1C2c1ccccc1 (centres undefined)	-18	-35	-5.4	-7%	0.69	2.9	i	1.5	7
COc1ccc(OC)c(NC(=O)C(CC(C)C)NC(=O)C2CCCCC2)c1 (centres undefined)	.	.	.	30%	0.73	.	.	-1.5	-12
CC=Cc1ccc2n(c1=O)C[C@H]1[C@H](CO)[C@@H](C(=O)NCC)[C@@H]2N1C(=O)c1ccccc1 (mixture of isomers)	4	18	0.6	.	.	0.7	i	.	.

Going on with the list:
SMILES	Ecoli rRNA inh	Ecoli rRNA inh OD600	Ecoli rRNA inh RFP	Vif TR-FRET	Ecoli growth	AF4-AF9 inh	FGF22 binding	HNF4A DNA FP	ALR inh
O=C(NCCN1CCOCC1)c1cc(-c2cccs2)on1	.	.	.	6%	0.65	.	.	6.0	0
C[C@@H]1CN([C@H](C)CO)C(=O)c2cc(NC(=O)C3CC3)ccc2O[C@H]1CN(C)Cc1ccc(C(=O)O)cc1	1	-2	-0.7	.	.	-3.9	i	.	.
COC(=O)[C@@H]1C[C@H]1[C@@H](NC(=O)c1cc(C)on1)c1ccccc1	9	11	-1.9	.	.	-2.7	i	-6.4	2
O=C(Nc1ccc(F)cc1)Nc1ccccc1C(=O)NCCN1CCNC1=O	3	1	-1.8	-2%	0.68	0.8	i	3.2	0
CCOc1ccc(C(=O)OCC(=O)N2CCCC2)cc1	5	4	-1.4	2%	0.68	-0.5	i	2.1	.
COc1ccc(-c2cn3c(C)c(C(=O)NC(C)C)sc3n2)cc1	.	.	.	2%	0.68	.	.	4.5	-5
Cn1c2ccccc2c(=O)c2c(=O)n(C3CCCCCC3)c(C3CCCCC3)nc21	.	.	.	.	.	0.8	i	67*	.
Cc1nc(N)[nH]c(=O)c1CCCNc1ccc([N+](=O)[O-])cc1	-14	-5	1.7	1%	0.66	0.1	i	0.5	.
O=C(C[C@H]1C[C@@H]2c3cc(NC(=O)c4ccc5c(c4)OCO5)ccc3O[C@@H]2[C@H](CO)O1)NC1CCCCC1	-3	3	3.0	.	.	0.9	i	.	.

Arranged by molecular weight (high to low): part of the list above
SMILES	Ecoli rRNA inh	Ecoli rRNA inh OD600	Ecoli rRNA inh RFP	Vif TR-FRET	Ecoli growth	AF4-AF9 inh	FGF22 binding	HNF4A DNA FP	ALR inh
C[C@@H]1CN([C@H](C)CO)C(=O)c2cc(NC(=O)C3CC3)ccc2O[C@H]1CN(C)Cc1ccc(C(=O)O)cc1	1	-2	-0.7	.	.	-3.9	i	.	.
O=C(C[C@H]1C[C@@H]2c3cc(NC(=O)c4ccc5c(c4)OCO5)ccc3O[C@@H]2[C@H](CO)O1)NC1CCCCC1	-3	3	3.0	.	.	0.9	i	.	.
CCOc1ccc(C(=O)OCC(=O)N2CCCC2)cc1	5	4	-1.4	2%	0.68	-0.5	i	2.1	.

Source: PubChem BioAssay

These rows are one share of the data; rates above refer to the full screens.
